# NS1 function inh – blocks influenza NS1 protein function; S. cerevisiae slowed by influenza A NS1, growth recovery by OD600; Potency, µM (titrated, usually from 46.1 µM), for the others: top-dose activity, positive = more growth; hit rate 0.4% among 270,000; active means well fitted rising curve with a large enough effect; inconclusive means small, poorly fitted or top-dose-only effect; inactive means no such curve, though single readings can be large or run the other way; further: nearly all actives have a fitted effect of over 50% in size
#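 Compounds were scored for reversing the slow growth caused by influenza A NS1 in S. cerevisiae, measured by optical density at 600 nm. Assay medium contained 2% galactose at pH 6.0; NS1-free yeast of the same strain were the positive control.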
# Cruzain Triton – cruzain (T. cruzi) inhibition with detergent. purified cruzain, Z-FR-AMC fluorescence, 0.01% Triton. Potency, µM, inactives show max response, negative = inhibition, hits mostly inhibitors. hit rate 0.43% among 200,000. AID 1478;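 further: plate controls were neutral wells for no effect and buffer without enzyme for full effect; nearly all actives have a fitted effect of over 40% in size; top concentration of the series not given in the record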
# Target sequence (P25779 123-467 limits assumed): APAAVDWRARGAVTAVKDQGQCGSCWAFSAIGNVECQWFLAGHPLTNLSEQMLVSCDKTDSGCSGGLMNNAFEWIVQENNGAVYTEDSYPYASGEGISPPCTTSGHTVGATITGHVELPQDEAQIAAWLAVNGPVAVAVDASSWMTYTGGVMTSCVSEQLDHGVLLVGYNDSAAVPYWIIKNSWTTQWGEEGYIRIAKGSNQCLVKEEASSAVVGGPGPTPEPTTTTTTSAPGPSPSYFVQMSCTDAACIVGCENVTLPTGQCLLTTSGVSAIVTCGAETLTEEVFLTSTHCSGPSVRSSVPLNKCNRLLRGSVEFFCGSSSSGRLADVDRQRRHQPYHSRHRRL
#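 Cysteine protease activity tested under reducing, mildly acidic conditions (100 mM sodium acetate pH 5.5, 5 mM DTT) plus 0.01% Triton X-100. Cruzain 1.5 nM; substrate Z-FR-AMC 2 uM; 15 min compound preincubation at room temperature.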
# SARS PLpro yeast – blocks SARS-CoV papain-like protease in a yeast assay | AID 485353 | Potency, µM (highest dose often 32.9 µM), without a hit: top-dose activity, positive = growth rescue | S. cerevisiae expressing SARS-CoV PLpro, growth rescue; control for the full effect not named in the record | hit rate 0.19% among 330,000; active means well fitted rising curve with a large enough effect; inconclusive means small, poorly fitted or top-dose-only effect; inactive means no such curve, though single readings can be large or run the other way; further: 0% is about no effect; nearly all actives have a fitted effect of over 55% in size; growth read by luminescence after 48 h
# StopGo reporter – FMDV 2A StopGo reporter, luciferase signal; human cells with a luciferase reporter of 2A StopGo recoding; control for the full effect not named in the record; Potency, µM (highest dose often 57.9 µM), without a hit: at the highest dose signal change, negative = less light; hit rate 1.2% among 410,000; AID 1159524; active = well fitted falling curve with a large enough effect; inconclusive = small, poorly fitted or top-dose-only effect; inactive = no such curve, though single readings can be large or run the other way; tested in HEK293T cells; further: on the % scale 0 is the no-effect control and ±100 the full control effect; nearly all actives have a fitted effect of over 45% in size; luciferase light after 4 h
# Cruzain noTriton – inhibitors of Trypanosoma cruzi cruzain without detergent. hit rate 2.3% among 200,000. Potency, µM, for inactives: max response, negative = inhibition, actives largely listed as inhibitors. purified cruzain, Z-FR-AMC fluorescence, no detergent. AID 1476;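 further: plate controls were enzyme without inhibitor for no effect and buffer without enzyme for full effect; nearly all actives have a fitted effect of over 40% in size; top concentration of the series not given in the record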
#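 Detergent-free condition (0.00005% Triton X-100) in acetate buffer pH 5.5 with DTT. 1.5 nM enzyme and compound were pre-mixed 15 min, then 2 uM Z-FR-AMC substrate added; reaction progress from fluorescence change between first and third reads (60 s).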
# RE007 growth inh – less growth of the S. pombe RE007 Vpr strain | S. pombe RE007 Vpr strain, BacTiter-Glo ATP luminescence, 24 h; control for the full effect not named in the record | Potency, µM (highest dose often 92.2 µM), inactives show top-dose activity change, negative = less growth | hit rate 0.21% among 360,000 | AID 651644; active = well fitted falling curve with a large enough effect; inconclusive = small, poorly fitted or top-dose-only effect; inactive = no such curve, though single readings can be large or run the other way;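 further: on the % scale 0 is the no-effect control and ±100 the full control effect; nearly all actives have a fitted effect of over 50% in size; the assay follows cell death caused by Vpr and the record does not say whether a fall means rescue or toxicity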
#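 Fission yeast RE007 carrying one integrated HIV-1 vpr copy, seeded at OD 0.01 in PMG+AL medium with 23 nL pinned compound. Grown 24 h at 30 degrees; viability read by BacTiter-Glo luminescence after 5 min.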
# Marburg entry inh – Marburg virus entry inhibition; Marburg virus pseudotyped entry inhibition, cell reporter; control for the full effect not named in the record; about a third of the inactives were read at about 46 µM; Potency, µM (highest dose often 37.8 µM), for inactives: at the highest dose activity change, negative = inhibition, most hits filed as inhibitors; hit rate 1.8% among 300,000; active = well fitted inhibition curve with a large enough effect; inconclusive = small, poorly fitted or top-dose-only effect, or effect the other way; inactive = flat fitted curve, though single readings scatter; tested in HEK293 cells; about a fifth of its hits are not listed in these tables; further: on the % scale 0 is the no-effect control and ±100 the full control effect; luciferase read-out
# Lassa entry inh – blocks Lassa virus binding to or entry into cells | Lassa virus pseudotype entry inhibition, cell reporter; control for the full effect not named in the record | Potency, µM (highest dose often 37.9 µM), for the others: at the top dose activity change, negative = inhibition, hits mostly inhibitors | hit rate 1.2% among 300,000; active means well fitted inhibition curve with a large enough effect; inconclusive means small, poorly fitted or top-dose-only effect, or effect the other way; inactive means flat fitted curve, though single readings scatter; tested in HEK293 cells; further: on the % scale 0 is the no-effect control and ±100 the full control effect; nearly all actives have a fitted effect of over 50% in size; luciferase read-out
# Numbers without * were called inactive; u = inconclusive; x = no result given; & = joins results of further samples; [ ] = another dose, or the depositor's remark. Unless noted, the call rests on the fitted dose curve; in most records, active means well fitted curve in the direction sought with a large enough effect; inconclusive means small, poorly fitted or top-dose-only effect, or another doubt; inactive means no such curve, though single readings can be large; an effect the other way counts as inactive or inconclusive. Potency means the concentration at half of the fitted maximal effect.
# The line under a structure holds: NS1 function inh, Cruzain Triton, SARS PLpro yeast, StopGo reporter, Cruzain noTriton, RE007 growth inh, Marburg entry inh, Lassa entry inh
> CN(C)c1ccc(C2C=C(c3ccccc3)Nc3nnnn32)cc1 (stereo not given)
 : x, -8.9%, x, 21%, 4%, x, u, 1%[46.1 µM]
> COc1ccc(S(=O)(=O)N2CCC(CN3C(=O)c4cccc5cccc(c45)C3=O)CC2)cc1
 : u, -3.3%, 11%, -21%, 25µM*, 16%, 0%, 1%
> CCOc1ccc(S(=O)(=O)N(C)c2ccc(OCC(=O)NCCc3ccc(OC)cc3)cc2)cc1
 : -6%, x, 1%, u, x, -1%, -1%, x
> Cc1ccc(-c2csc(/C(C#N)=C/Nc3ccccc3SC(F)(F)F)n2)cc1
 : 12%, -0.5%, 0%, -22%, 10µM*, 9%, x, x
> CCCn1c(SCC(=O)NC2CCCC2)nnc1-c1cccnc1
 : 1%, x, 2%, 10%, x, -15%, u, x
> Cc1ccc(N2CC(C(=O)NCCCn3ccnc3)CC2=O)cc1 (stereo not given)
 : -6%, -4.8%, 4%, 4%, 0%, 0%, -3%, 3%
> CC(C(=O)NCCc1ccc(S(N)(=O)=O)cc1)N1C(=O)CC(C)(C)Sc2ccccc21 (stereo not given)
 : 2%, x, -3%, -13%, x, 15%, 3%[46.1 µM], -9%[46.1 µM]
> CCn1c(SCC(=O)NC2CC2)nnc1-c1ccccn1
 : 2%, x, -1%, 5%, x, -2%, 0%[46.1 µM], 15%[46.1 µM]
> CO/N=C/c1c(-c2ccccc2)nn(C)c1Cl
 : x, x, 2%, 37%[activator], x, 2%, -2%[46.1 µM], 21%
> Cc1ccccc1OCCC(=O)NCCc1ccc(S(N)(=O)=O)cc1
 : 5%, 0.2%, 14%, -24%, 9%, 0%, u, -12%
> O=C(NNC(=S)Nc1ccc(Cl)cc1)c1ccccc1OC(F)F
 : -54%, -3.8%, 6%, -15%, -13%, 3%, u, u
> O=C(Nc1cccc(-n2cnnn2)c1)c1ccc(OC(F)(F)F)cc1
 : -16%, x, 16%, -9%, x, -9%, x, x
> COc1ccc(N2C(=O)CCC(C(=O)N3CCCCC3)C2c2ccc(F)cc2)cc1 (stereo not given)
 : 7%, 1.5%, 3%, -15%, u, -10%, u, -1%
> CCOc1ccccc1N1CCN(CC(=O)Nc2cc(C)on2)CC1
 : 6%, x, -4%, 0%, x, -10%, 4%[46.1 µM], u
> C=CCn1c(=N)n(CC(=O)OC)c2ccccc21
 : -5%, 4.1%, -1%, -3%, -5%, 6%, u, 7%
> CCc1cccc(CC)c1NC(=S)N1CCn2cccc2C1c1ccncc1 (stereo not given)
 : x, x, 1%, -14%, x, 9%, -8%[46.1 µM], 18%
> COc1ccccc1CNC(=O)Cn1nnc(-c2ccncc2)n1
 : 0%, 4.0%, 4%, -8%, 3%, 7%, 15%, 12%
> CN1CCN(C(=O)Nc2ccccc2)CC1
 : 4%, x, 0%, 6%, x, -9%, 29%[46.1 µM], -4%
> O=S1(=O)c2ccccc2N=NN1Cc1ccc(Cl)cc1
 : 6%, u, -3%, 20%, u, 9%, -9%, 17%
> CC(C)OCCCn1c(SCc2ccccc2C#N)nc2c(sc3ccccc32)c1=O
 : x, 1.3%, x, 1%, -1%, x, x, 13%[46.1 µM]
> CCCn1cc(S(=O)(=O)c2ccc(C)cc2)c(=O)c2cc(OCC)ccc21
 : 12%, x, 2%, 2%, x, -13%, x, x
> CC(=O)NCCNc1nc2c(-c3cccc(C(F)(F)F)c3)nnn2c2ccccc12
 : 2%, x, 0%, 2%, x, -18%, 21%, u
> CCc1cc(=O)oc2cc(C)cc(OC(C)C(=O)NCc3cccnc3)c12 (stereo not given)
 : -4%, x, 3%, -7%, x, 0%, x, x
> CC(C)c1nnc(NC(=O)CCC(=O)N2CCN(Cc3ccc(F)cc3)CC2)s1
 : -13%, x, 0%, -24%, x, 2%, 14%[46.1 µM], 6%[46.1 µM]
> CC1=C(C(=O)OC2CCCCC2)C(c2ccccc2F)NC(=O)N1 (stereo not given)
 : -3%, x, 0%, u, x, -9%, u, x
> CCN1C(=O)c2ccc(C(=O)Nc3nccs3)cc2C1=O
 : -16%, 4.3%, -5%, 46%[activator], -3%, -22%, 3%, 0%
> CC(C)C[C@@H](CC#N)N1CCN(CCc2ccccc2)CCC1=O
 : -7%, x, 4%, -7%, x, -6%, x, x
> CC(=O)c1ccc(NC(=O)C2CCCN(S(=O)(=O)c3cn(C)cn3)C2)cc1 (stereo not given)
 : x, -1.1%, x, -8%, -9%, x, x, 0%[46.1 µM]
> CC1CCC(C(C)C)C(OCC(O)CNC(C)c2ccccc2)C1 (stereo not given)
 : 0%, x, -1%, u, x, 5%, u, u
> O=C(NCc1cccc(Cl)c1)NCc1cccc(Cl)c1
 : -10%, -4.7%, 13%, -1%, -1%, 1%, 14%, u
> CCN(C(=O)COC(=O)/C(C#N)=C/c1cc(C)n(CCOC)c1C)c1c(N)n(Cc2ccccc2)c(=O)[nH]c1=O
 : x, x, x, 18%, x, -10%, 17%, 16%
> CC(C)(C)n1ncc(Oc2ccccc2[N+](=O)[O-])c(Cl)c1=O
 : -24%, -2.1%, u, -25%, -7%, 9%, -25%, -11%
> COc1ccccc1CNC(=O)COC(=O)CSc1ccc(Cl)cc1
 : x, x, x, -21%, x, 12%, 6%[46.1 µM], u
> COc1ccc(C(=O)NCc2cccnc2)cc1Br
 : -1%, 5.9%, 9%, 3%, -13%, 3%, 0%, 12%
> CCC(O)c1cc2c(cc1NC(=O)c1ccc(C)cc1)OCCO2 (stereo not given)
 : -38%, -3.0%, -8%, 4%, 8%, 2%, u, 13%
> O=C(CN(C(=O)CNC(=O)c1ccco1)c1ccc2c(c1)OCO2)NC1CCCCC1
 : 2%, -3.5%, 2%, -6%, 2%, 7%, 4%, -3%
> NS(=O)(=O)c1ccc(CCNc2nc(CN3CCOCC3)nc3sc4c(c23)CCC4)cc1
 : -2%, -18%, -5%, -12%, -19%, -7%, 2%&-17%, 1%
> CCCCCn1c2nc3ccccc3nc2c2c(=O)n(CC3CCCO3)c(C)nc21 (stereo not given)
 : u, 4.0%, -8%, x, -6%, x, x, x
> COCCNC(=O)c1cc2c(=O)n(C)c3ccccc3c2n1C
 : 8%, -8.9%, 5%, -19%, -2%, 1%, x, x
> CN(C)S(=O)(=O)c1ccc(N2CCCC2)c(C(=O)NNC(=O)c2ccc(Br)cc2)c1
 : x, x, -8%, -21%, x, 0%, -2%, -29%
> COc1ccc(Cl)cc1C(=O)NCCN(C)C
 : 1%, 5.4%, -2%, 22%, -13%, 23%, 1%, 9%
> C[C@@H](NC(=O)[C@@H]1Cc2ccccc2CN1)C(=O)NC1CCCC1
 : -10%, x, 1%, 0%, x, 6%, x, x
> Cc1ccc(C(=O)N/N=C/c2cccc3ccccc23)cn1
 : x, x, x, 0%, x, 5%, 22%[46.1 µM], -1%
> CCCN(C(=O)CSc1nnc(-c2ccoc2C)n1N)C1CCS(=O)(=O)C1 (stereo not given)
 : 4%, 8.5%, 2%, 8%, 4%, 8%, 0%&0%, 2%
> Brc1cc2c(cc1CSc1ncccn1)OCO2
 : -10%, x, -13%, 28%, x, 5%, 9%[46.1 µM], -4%
> Nc1nc(Nc2ccc(Cl)cc2Cl)nc(C(F)(F)F)n1
 : -1%, -3.6%, -3%, 0%, 2%, 12%, u, 2%
> COc1cc(OC)c(NC(=O)N2CCCn3nc(C)cc32)cc1Cl
 : x, -0.5%, x, -16%, 4%, x, x, 10%[46.1 µM]
> Cn1cc(C(=O)Nc2ccc(F)c(Cl)c2)cn1
 : -10%, -2.8%, 12%, 1%, -6%, -14%, u, -1%
> CS(=O)(=O)c1ccc(C(=O)NNC(=O)c2cc(-c3ccccc3)n[nH]2)cc1
 : x, x, 1%, 4%, x, -3%, 1%[46.1 µM], 1%
> CCOC(=O)c1sc(=NC(=O)c2c(F)cccc2F)n(C)c1C
 : -27%, x, 1%, 37%[activator], x, 5%, x, x
> CC(=O)c1cccc(CN2CCCC(CCC(=O)NCc3ccccc3F)C2)c1 (stereo not given)
 : 1%, x, 0%, -3%, x, -18%, -17%[46.1 µM], -10%
> Cc1cc(N(C)Cc2ccccc2)nc2cc(O)ccc12
 : -3%, x, 1%, 15%, x, 10%, 6%, 15%
> CN1CCN(C(=O)C2=C[C@H](c3coc4ccccc4c3=O)C[C@H](OCCCCO)O2)CC1
 : -3%, x, 0%, -16%, x, -2%, x, x
> COCCNC(=O)C(c1ccc(C)o1)N(C(=O)c1snc(C(N)=O)c1N)c1cccc(C)c1 (stereo not given)
 : -13%, -4.8%, 0%, x, 30%, 3%, u, 1%
> CC(=O)c1cccc(NC(=O)CNC(=O)Cc2cccc3ccccc23)c1
 : x, x, 0%, -5%, x, 0%, u, -28%[46.1 µM]
> Cc1onc(-c2ccccc2)c1C(=O)N1CCCSC1=Nc1ccccc1
 : -36%, -1.9%, -11%, u, 7%, 14%&-11%, 7%[46.1 µM], 17%[46.1 µM]
> c1csc(Cn2nnnc2CN2CCN(c3nc4ccccc4s3)CC2)c1
 : -43%, -8.3%, -17%, u, 9%, 6%, u, -5%
> Cc1cccc(C)c1OCc1cc(C(=O)N2CCN(c3ccc(F)cc3)CC2)no1
 : 0%, x, -3%, -5%, x, -7%, x, x
> CCCCOc1ncnc2c1[nH]c1ccc(C)cc12
 : -7%, x, -1%, -9%, x, 4%, u, u
> CCCN(C(=O)c1cn(CC)c2nc(C)ccc2c1=O)c1c(N)n(Cc2ccccc2)c(=O)[nH]c1=O
 : x, x, 0%, -2%, x, 2%, 1%[46.1 µM], x
> Cc1ccccc1-n1c(O)c(C=Nc2ccc(N(C)C)cc2)c(=O)[nH]c1=O
 : -37%, -1.6%, -7%, -7%, 3%, 1%, 4%, 2%
> CC(NCc1cccs1)C(=O)Nc1cc(Cl)cc(Cl)c1 (stereo not given)
 : -29%, x, -1%, u, x, -8%, -4%[46.1 µM], 18%
> CCCC(=O)Nc1nn(CC(C)C)c2nc3cc(C)ccc3cc12
 : 2%, x, 0%, -20%, x, 4%, x, x
